VACV E9 pol inh: vaccinia E9 polymerase processive synthesis inhibitors, primary screen, biochemical, absorbance. normalized absorbance, % (concentration not given with the values). 0.94% of 46,000 active. Vaccinia virus DNA polymerase (E9) processive complex. AID 493162, 2011. in vitro processive DNA synthesis, absorbance read-out; stronger effect = lower value; some inactives read as strong as hits;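 active = replicate mean up to 90% and picked by the depositor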;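 note: 100% = median of the test wells of a plate; 100 nL library stock went into each well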
Starred values were filed as active, the others as inactive; & = joins results of further samples. The list is partial (hit frequency here may not be typical).

SMILES	VACV E9 pol inh
O=C(NC12CC3CC(CC(C3)C1)C2)C1=COCCO1	102
O=C1c2ccccc2C(NCCc2ccccc2)N1CCc1ccccc1 (stereo not drawn)	95
Cc1c(-c2ccc(Br)cc2)c(=O)oc2ccccc12	96
CCCOc1ccc(-c2[nH]ncc2Oc2ccccc2)c(O)c1	100
O=C(O)c1cc2ccc(Br)cc2o1	126
O=C(COc1ccccc1)NCCN1CCCC1	98
CCCSc1nc(C)cc(C)c1C(N)=O	100
Cc1cc(C(=O)OCC(=O)NC2CCCC2)c(C)n1-c1ccccc1	102
Cc1cc(OCc2cccc(C(F)(F)F)c2)c2c3c(c(=O)oc2c1)CCC3	100
c1coc(C2Nc3c(ccc4ccccc34)C3OCCC23)c1 (stereo not drawn)	100
CCn1cnc2sc(C(=O)N(Cc3ccc(N(C)C)cc3)Cc3ccco3)c(C)c2c1=O	93
Cc1nn(-c2ccccc2)c2c1C(C(F)(F)F)(C(F)(F)F)N=C(N1CCOCC1)O2	117
N#CCN(CC#N)C(=O)c1cccc(C(=O)N(CC#N)CC#N)c1	100
C=CCSc1nc2ccc(N=Cc3cc(Cl)ccc3O)cc2s1	107
N#Cc1c(SCc2ccccc2Cl)nc2c(c1C(F)(F)F)CCc1occc1-2	97
O=C(CSc1nncc2ccccc12)N1CCOCC1	100
COC(=O)c1ccc(NCC(=O)c2ccc(OC)cc2)cc1	96
Cc1nnc(-c2ccccc2)[nH]c1=O	101
CN(C)c1ccc(/C=C2/Oc3c(ccc(O)c3O)C2=O)cc1	100
O=S(=O)(c1ccc(Br)cc1)N(Cl)Cl	102
C=CCN1C(=O)C(=O)/C(=C(\O)c2ccccc2)C1c1ccc(OC)cc1 (stereo not drawn)	102
CCCc1cc(=O)[nH]c(Nc2ccc(CC)cc2)n1	102
CCOc1ccc(C(=O)NCCSc2c[nH]c3ccccc23)cc1	98
CCN(c1ccccc1)S(=O)(=O)c1ccc2c(c1)OCCO2	101
N#CC1=C(SCC(=O)Nc2ccccc2C(F)(F)F)NC2=C(C(=O)CCC2)C1c1ccco1 (stereo not drawn)	110

Molecules shown so far containing fluorine, in the order listed:
SMILES	VACV E9 pol inh
Cc1cc(OCc2cccc(C(F)(F)F)c2)c2c3c(c(=O)oc2c1)CCC3	100
Cc1nn(-c2ccccc2)c2c1C(C(F)(F)F)(C(F)(F)F)N=C(N1CCOCC1)O2	117
N#Cc1c(SCc2ccccc2Cl)nc2c(c1C(F)(F)F)CCc1occc1-2	97
N#CC1=C(SCC(=O)Nc2ccccc2C(F)(F)F)NC2=C(C(=O)CCC2)C1c1ccco1 (stereo not drawn)	110

Individual results from the list.
CCN(c1ccccc1)S(=O)(=O)c1ccc2c(c1)OCCO2 – VACV E9 pol inh: 101
CCCc1cc(=O)[nH]c(Nc2ccc(CC)cc2)n1 – VACV E9 pol inh: 102
O=C(COc1ccccc1)NCCN1CCCC1 – VACV E9 pol inh: 98
COC(=O)c1ccc(NCC(=O)c2ccc(OC)cc2)cc1 – VACV E9 pol inh: 96
Cc1c(-c2ccc(Br)cc2)c(=O)oc2ccccc12 – VACV E9 pol inh: 96
N#Cc1c(SCc2ccccc2Cl)nc2c(c1C(F)(F)F)CCc1occc1-2 – VACV E9 pol inh: 97
Cc1cc(C(=O)OCC(=O)NC2CCCC2)c(C)n1-c1ccccc1 – VACV E9 pol inh: 102
CCCSc1nc(C)cc(C)c1C(N)=O – VACV E9 pol inh: 100
CCn1cnc2sc(C(=O)N(Cc3ccc(N(C)C)cc3)Cc3ccco3)c(C)c2c1=O – VACV E9 pol inh: 93
CCOc1ccc(C(=O)NCCSc2c[nH]c3ccccc23)cc1 – VACV E9 pol inh: 98
N#CCN(CC#N)C(=O)c1cccc(C(=O)N(CC#N)CC#N)c1 – VACV E9 pol inh: 100
CCCOc1ccc(-c2[nH]ncc2Oc2ccccc2)c(O)c1 – VACV E9 pol inh: 100
C=CCN1C(=O)C(=O)/C(=C(\O)c2ccccc2)C1c1ccc(OC)cc1 (stereo not drawn) – VACV E9 pol inh: 102
N#CC1=C(SCC(=O)Nc2ccccc2C(F)(F)F)NC2=C(C(=O)CCC2)C1c1ccco1 (stereo not drawn) – VACV E9 pol inh: 110

Going on with the list.
SMILES	VACV E9 pol inh
COC(=O)c1cc(-c2cncnc2-c2ccc(OC)c(C)c2O)c(C)o1	100
Cc1ccc(CNC(=O)C2CCC(CNc3nc(=S)[nH]c4ccccc34)CC2)cc1 (stereo not drawn)	103
CC(=O)Nc1ccc(-c2csc(Nc3ccccc3C)n2)cc1	101
Cc1ccc(NS(=O)(=O)c2c(C)ccc3nsnc23)cc1	100
O=S(=O)(c1ccc(Br)cc1)N1CCCC(C(F)(F)F)C1 (stereo not drawn)	100
Cc1ccc(N(C)C(=O)[C@H]2[C@@H]3C[C@@H]4[C@H]2C(=O)O[C@@H]4C3)cc1	108
O=c1c2cc(-c3ccccc3)sc2ncn1Cc1ccccc1Cl	116
Cc1cc(C)c2c(n1)nn1c(C)c(CCC(=O)O)c(C)nc21	96
Cc1ccccc1OCc1nc2ccccc2[nH]1	100
CC(C)(C)C1C/C(=C\c2ccc3c(c2)OCO3)C(=O)/C(=C/c2ccc3c(c2)OCO3)C1 (stereo not drawn)	99
Cc1noc(C(=O)N2CCCc3ccccc32)c1Cl	103
CCOC(=O)N(C)CCc1cc2c(cc1C)OCO2	100
CC1CCCC(C)N1CCCNC(=O)C1CCN(c2ncnc3c2sc2cccc(F)c23)CC1 (stereo not drawn)	98
CCOc1cc(/C=N/S(=O)(=O)c2cccs2)cc(Br)c1O	108
O=C(c1ccc(F)cc1)N1CCc2ccccc2C1	99
COc1ccc(COC(=O)N/C=C/c2ccco2)cc1	118
CN(C)c1ccc(C(=NO)c2ccc(N(C)C)cc2)cc1	100
O=C1OC(c2ccco2)=N/C1=C\c1ccc(Br)cc1	101
CN(C)C(=O)CCCc1nc(-c2ccc(Cl)cc2)no1	104
O=C(c1cccc(Br)c1)c1nccn1-c1ccccn1	99
CSc1nc(-c2ccccc2)c2cc(Cl)ccc2n1	100
O=C(c1ccc(Cl)cc1)n1cc2c(n1)-c1cc(Cl)ccc1SC2	95
CCOC(=O)c1nn(-c2ccc(C(F)(F)F)cc2)cc(Sc2nnc(C(F)(F)F)n2C)c1=O	101
O=C(O)CCNc1nc2ccccc2s1	104
CC(C)CNC(=O)c1cc(-c2ccc(F)cc2)no1	101
Additional results
SMILES	VACV E9 pol inh
N#CCC(=O)N=Cc1ccc(Cl)cc1Cl	100
Cc1ccc(CNCc2ccncc2)cc1	92
FC(F)(F)c1cnc(-n2nc(Br)nc2Br)c(Cl)c1	107
COC(=O)c1ccc(C(=O)N=c2sc3cc(F)ccc3n2C)cc1	101
CCCOC(=O)CSc1nc(N)c(C#N)c(-c2ccc(C)cc2)c1C#N	101
Cc1oc2cc(O)ccc2c(=O)c1Oc1ccc(-c2ccccc2)cc1	100
CCC(C)(C)c1ccc(Oc2ccc(NC(=O)CSc3cccc[n+]3[O-])cc2)cc1	101
CC(C)(C)c1cn2c3ccccc3nc2n1CCN1CCCC1	90
C=CC(=O)NC(C)(C)CCN1CCOCC1	97
CN1C(=O)/C(=C2\SC(=S)N(c3cccc(C(=O)O)c3)C2=O)c2ccccc21	104
CC(C)CNC(=O)NC1(C(F)(F)F)Oc2ccc(Cl)cc2O1 (stereo not drawn)	102
Cc1ccc2cc(CCNC(=O)CCC3CCCC3)c(=O)[nH]c2c1	101
CCCCC1CCC(c2ccc(C(=O)O)cc2)CC1 (stereo not drawn)	51*
Cc1ccc2c(c1)C1CN(C)CCC1N2C(=O)Cn1nnc(-c2ccccc2C)n1 (stereo not drawn)	100
Cc1ccc(NC(=S)NCCCN2CCN(c3cc(Cl)ccc3C)CC2)c(Cl)c1	98
Cc1c(Cc2ccccc2)c(=O)oc2cc(OC(C)C)ccc12	100
Cc1ccoc1C(=O)NCCN	100
N#Cc1ccccc1Sc1ccccc1C(=O)NC(Cc1ccccc1)C(N)=O (stereo not drawn)	87
CC(Sc1nnnn1-c1ccccc1)C(=O)O (stereo not drawn)	93
COc1ccc(-c2cc(C(F)(F)F)nc(NCC3CCCO3)n2)cc1 (stereo not drawn)	105
CCOC(=O)COc1ccccc1/C=C1\N=C(SCC)SC1=O	100
O=S(=O)(c1ccc(-c2nc3ccccc3s2)cc1)N1CCOCC1	108
CCOc1ccc(CC(=O)C2C(=O)CC(C)(C)CC2=O)cc1OCC	100
C=CCC(NCCc1ccccc1)c1ccco1 (stereo not drawn)	106
CC1=C(C(=O)OC(C)C)C23C(=O)c4ccccc4C2(O1)OC(N)=C3C#N (stereo not drawn)	100
New compounds follow:
SMILES	VACV E9 pol inh
COc1ccc(-c2[nH]ncc2CN2CCC(c3ccccc3OC)CC2)cc1	97
NS(=O)(=O)c1ccc(NC(=O)c2ccc(-c3nc4ccccc4s3)s2)cc1	68
COc1ccc2cc3cc(C(=O)N(C)C4CCCCC4)oc3nc2c1	100
Cc1nc(-c2ccccn2)nc(SCC(=O)c2ccc(F)cc2)c1Cl	99
Cn1ncc(C(=O)Sc2ccc(Cl)cc2)c1-n1cccc1	78
CC(C(=O)O)N1C(=O)/C(=C/c2cccc3ccccc23)SC1=S (stereo not drawn)	85
COc1ccc(/C=C/C(=O)Nc2sc3c(c2C(N)=O)CCCC3)cc1OC	102
CCOC(=O)c1sc2nc(SCc3cccc(Cl)c3)n(Cc3cccs3)c(=O)c2c1C	95
CNC(=O)C1=CC(C)(C)NC1(C)C	94
CC(NC(=O)c1cnn2c(C(F)(F)F)cc(-c3cccs3)nc12)c1ccccc1 (stereo not drawn)	90
COc1cc2c(cc1OC)N1C(=O)c3ccccc3C1(O)OC2=O (stereo not drawn)	103
CCOC(=O)Cn1c(-c2cccnc2)nc(-c2ccccc2)c1-c1ccccc1	108
Cc1cc(=O)[nH]c(N2CCN(Cc3ccccc3)CC2)n1	95
O=C(NCc1ccccc1)NC1CCCCC1	108&93&108
CCOC(=O)COc1ccc2cc(-c3nc4ccccc4s3)c(=O)oc2c1	95
COc1ccc(C2C3(C#N)C(N)=NC(OC)(OC)C23C#N)cc1 (stereo not drawn)	100
c1ccc2c(-c3csc(-c4ccncc4)n3)c[nH]c2c1	100
Nc1cccc(-c2ccc(CO)o2)c1	104
CC1(C)CCCC(C)(C)N1OC(=O)c1ccc(N)cc1	99
O=C(NCC1CCCO1)c1cc2c(s1)-c1ccccc1OC2 (stereo not drawn)	82
CC(C)CCNC(=O)C1CCN(S(=O)(=O)N2CCCCC2)CC1	103
CC(NC(=O)CCn1c(=O)sc2ccccc21)c1ccccc1 (stereo not drawn)	101
Clc1ccc2oc(-c3cccnc3)nc2c1	100
O=C(Nc1ccc(N2CCCCC2)cc1)c1cc(C(F)(F)F)cc(C(F)(F)F)c1	96
COC(=O)c1cc(-c2ccc(Cl)cc2)on1	104
The list goes on.
SMILES	VACV E9 pol inh
CCC1(c2cccc(OC(=O)Nc3ccc(OC(F)(F)F)cc3)c2)CCCCN(C)C1=O (stereo not drawn)	99
Cc1ccc(/C=C/C(=O)Nc2ccccc2C(F)(F)F)c(C)c1	99
Oc1ccccc1-c1csnn1	105
COc1cccc(C(=O)Nc2cccc(-c3nc4ncccc4o3)c2)c1	101
O=c1c(Cl)c(N2CCCCC2)cnn1-c1ccccc1	100
CCN1CCN(C(c2cccs2)C(C)NC(=O)c2ccc(N(C)C)cc2)CC1 (stereo not drawn)	100
O=C(NCc1ccccc1)C1C2CCCCC21 (stereo not drawn)	101
O=C(O)/C=C/c1ccc(S(=O)(=O)Nc2cccc(C(=O)O)c2)cc1	95
CCOC(=O)C(C)Oc1ccc2c(=O)c(-c3csc(C)n3)coc2c1 (stereo not drawn)	100
Cc1ccc(CSCC(=O)Nc2ccccc2)cc1	99
O=C(O)CC(Sc1cccs1)C(=O)O (stereo not drawn)	99
CC(=O)N1CCN(C(=O)c2cn(-c3ccccc3)nc2-c2ccc(C)cc2)CC1	99
COC(=O)C1C(=O)NC(SCc2ccccc2Cl)=C(C#N)C1c1ccc(C)cc1 (stereo not drawn)	96
COc1ccc(NC(=O)C2CCCCN2/N=C/c2ccc(OC)c(OCC(C)C)c2)cc1OC (stereo not drawn)	101
Cc1cc(N2CCN(C)CC2)nc2ccc(NC(=O)C3CCC(C(C)(C)C)CC3)cc12 (stereo not drawn)	104
O=C(O)c1ccc(C(=O)O)s1	87
COC(=O)c1ccc(CSc2nc(C)cc(C)n2)cc1	99
NC1=NC(=O)/C(=C\c2ccccc2C(F)(F)F)S1	100
COc1ccc(N2C(=O)CC2(/C=C/c2ccccc2)C(=O)NC2CCCCC2)cc1 (stereo not drawn)	105
COc1ccc(CCN2C(=O)C=CC2=O)cc1OC	112
O=C(Nc1ccc(F)cc1)Nc1ccc2c(c1)C(=O)OC2	100
CC(C)C[C@@H](NC(=O)OCC1c2ccccc2-c2ccccc21)C(=O)O	99
CSc1ccccc1NC(=O)CSc1nccn1C	102
O=C(CN1C(=O)C2C3C=CC(C3)C2C1=O)OCCCc1ccccc1 (stereo not drawn)	100
Cc1ccc(Sc2c(-c3ccccc3)nc3sccn23)cc1	101
(listing goes on)
SMILES	VACV E9 pol inh
CCC1CCC2(CC1)NNC(=S)NN2	98
CCN(C(=O)COc1ccc(Cl)cc1Cl)c1cccc(C)c1	103
Cc1ccc(OCC(=O)O)c(C)c1	100
CC1C/C(=C/c2ccncc2)C(=O)/C(=C/c2ccncc2)C1 (stereo not drawn)	83
Cc1cc2ccccc2n1CCNS(=O)(=O)c1ccccc1	102
O=c1[nH]c(=S)n(-c2cccc3ccccc23)c(O)c1/C=C1\C=Nc2ccccc21	93
COc1ccc2cc(-c3nc(N)ncc3C)ccc2c1Br	89
COc1ccc2[nH]c3c(=O)n(CCN4CCC(Cc5ccccc5)CC4)cnc3c2c1	99
Cc1ccc(SCc2cn3c(C)cc(C)nc3n2)cc1	103
Cc1cc(C)c2c(=O)n(CC(=O)NCCc3ccc(Cl)cc3)sc2n1	102
CCOC(=S)SCc1nc2ccccc2c(=O)n1-c1ccccc1	100
CCOC(=O)c1cnc2cc(Cl)c(F)cc2c1N1CC(C)OC(C)C1 (stereo not drawn)	98
COC(=O)c1cccc(C(=O)Nc2cccc3ccccc23)n1	98
